KSHV LANA nucl: LANA-nucleosome interaction inhibition. FITC-LANA1-23 / chicken nucleosome fluorescence polarization; active compounds read low. z-score (concentration not given with the values). hit rate 0.3% among 51,000. AID 720717;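 active = both repeat wells score below -2 in polarization z-score versus plate sample wells, excluding overly bright wells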;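 note: 100 nL library stock added to about 30 µL; numbers are from one replicate; some results filed as inactive read as strong as hits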
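Assay system: FITC-LANA peptide and chicken nucleosomes; input: 240 nM purified chicken nucleosomes (480 nM peptide binding sites), final; also added: 50 nM FITC-LANA1-23 probe; medium: TEN-BT buffer, pH 7.5; doses: pin-transferred compound, 100 nL; times: 10–45 min, room temperature; technique: fluorescence polarization; replication: duplicates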
Ab BasE inh: BasE siderophore biosynthesis inhibition | purified BasE, fluorescence polarization binding displacement | inhibition, % (no concentration beside the values) | hit rate 0.1% among 84,000;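 active = both replicates above 25% with normal brightness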;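 note: 0% = negative plate control signal and 100% = positive plate control signal; stock transfer was 100 nL into about 30 µL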
Numbers without * were called inactive; x = no result given; & = joins results of further samples. Only part of the results is shown, so the mix of outcomes need not match the whole.

| SMILES | KSHV LANA nucl | Ab BasE inh |
| --- | --- | --- |
| CC1(COc2ccc(CC3SC(=O)NC3=O)cc2)CCCCC1 (stereo not given) | -0.29 | 1.4 |
| c1ccc2c(c1)CCC/C2=N\NC1=NCCN1 | -0.49 | 0.5 |
| O=C(O)C(NS(=O)(=O)c1ccccc1)C(O)c1ccccc1 (stereo not given) | 0.1 | -2.5 |
| NS(=O)(=O)c1ccc(NC(=O)Cc2ccccc2F)cc1 | x | 1.1 |
| Cc1cc(N/N=C/C2=C(N3CCOCC3)C(=C\c3ccc(Cl)cc3Cl)/CC2)n[nH]1 | x | 2.0 |
| O=C(O)c1ccc(C(F)(F)F)cc1C(F)(F)F | x | 1.3 |
| CN1/C(=C2\C=NN(c3ccccc3)P2(=O)N2CCCC2)C(C)(C)c2ccccc21 (stereo not given) | x | 2.9 |
| O=C(NCc1cccs1)c1cnc2sccn2c1=O | -0.69 | 1.2 |
| CC1(C)CC(=O)C(C2c3ccccc3Oc3ccccc32)C(=O)C1 | x | 1.9 |
| CC(C)(C)c1ccc(S(=O)(=O)N2CCCC(C(=O)O)C2)cc1 (stereo not given) | -0.82 | 3.1 |
| N#Cc1ccc(C=Nc2cccc3c(=O)[nH][nH]c(=O)c23)cc1 | -0.098 | 2.4 |
| Cc1ccc2c(c1)N(Cc1cccc(C(F)(F)F)c1)C(=O)C(C)O2 (stereo not given) | -0.6 | -0.8 |
| COc1nc(SC)nc2sc3c(c12)CCC3 | -0.091 | 3.8 |
| C=CCN(c1ccc(C(=O)Nc2ccc(OC)cc2OC)cc1)S(C)(=O)=O | 2.5 | -1.6 |
| Cc1ccccc1Oc1ccc(CN)cc1 | 0.41 | -2.5 |
| N#CCCCn1c(=O)oc2ccccc21 | 0.3 | -2.3 |
| OC(CN1CCN(c2ccc(C(F)(F)F)cn2)CC1)c1ccc(F)cc1 (stereo not given) | 0.26 | 2.8 |
| OCC1CCCN1Cc1ccccc1C(F)(F)F (stereo not given) | -0.69 | -1.3 |
| CC(C)(C)OC(=O)NN=C1CCCC1 | x | 2.8 |
| Cn1c(=O)[nH]c(=S)c2nc(-c3ccc(F)cc3)cnc21 | 0.45 | -0.8 |

A section from further up, for reference:
| SMILES | KSHV LANA nucl | Ab BasE inh |
| --- | --- | --- |
| O=C(O)C(NS(=O)(=O)c1ccccc1)C(O)c1ccccc1 (stereo not given) | 0.1 | -2.5 |
| NS(=O)(=O)c1ccc(NC(=O)Cc2ccccc2F)cc1 | x | 1.1 |
| Cc1cc(N/N=C/C2=C(N3CCOCC3)C(=C\c3ccc(Cl)cc3Cl)/CC2)n[nH]1 | x | 2.0 |
| O=C(O)c1ccc(C(F)(F)F)cc1C(F)(F)F | x | 1.3 |
| CN1/C(=C2\C=NN(c3ccccc3)P2(=O)N2CCCC2)C(C)(C)c2ccccc21 (stereo not given) | x | 2.9 |
| O=C(NCc1cccs1)c1cnc2sccn2c1=O | -0.69 | 1.2 |

Later entries
| SMILES | KSHV LANA nucl | Ab BasE inh |
| --- | --- | --- |
| O=C(NC1CCCC1)c1noc2ncnc(N3CCOCC3)c12 | 0.15 | -1.9 |
| CC(=O)Nc1ccc(/C=N/NC(=S)Nc2cccnc2)cc1 | x | 2.9 |
| COc1ccccc1NC(=O)Nc1ccc2c(c1)nc(C)n2C | 0.23 | -3.2 |
| CN(C)S(=O)(=O)c1ccc(N2CCCC2)c(C(=O)OCCCOc2ccc(F)cc2)c1 | x | -0.2 |
| O=S1(=O)CCC(N/N=C/c2ccccc2O)C1 (stereo not given) | x | 2.6 |
| N#Cc1c(-c2ccccc2)cc2nc3ccccc3n2c1N | x | 0.3 |
| Cc1cccn2c(=O)c3cc(C(=O)N4CCN(C)CC4)c(=N)n(Cc4cccnc4)c3nc12 | x | 2.4 |
| O=S(=O)(c1cccc(C(F)(F)F)c1)N1CCCCC1 | x | 3.4 |
| CNC(=O)c1cc(S(=O)(=O)N2CC(C)OC(C)C2)ccc1N1CCOCC1 (stereo not given) | 0.5 | 0.9 |
| CC(C)NC(=O)CCCc1ccccc1 | 0.19 | -1.9 |
| CCOC(=O)c1sc2nc(CNC(C)C)nc(NC(C)C)c2c1C | x | -2.5 |
| Cc1cccc(NC(=O)N2CCCC2c2cccnc2)c1 (stereo not given) | -0.99 | x |
| CCn1c(SCc2nnc(-c3ccccc3)o2)nnc1-c1ccccc1 | x | -0.6 |
| COC(=O)c1ccc(C2C3=C(Nc4nnnn42)C(C2CCCCC2)CCC3)cc1 (stereo not given) | x | -0.8 |
| O=S(=O)(/C=C/c1ccccc1)N1CCOCC1 | 0.72 | -0.2 |
| CC(=O)N1CCN(c2ccc(Oc3ccc(C(F)(F)F)cn3)cc2)CC1 | x | -0.1 |
| CCOC(=O)C1=C(C)N(c2ccc(OC)cc2)C(=O)/C1=C\c1ccco1 | -0.91 | 10 |
| O=C(NCCOc1nnc(-c2ccccc2)o1)c1c(F)cccc1F | -0.9 | 0.3 |
| NC(=O)COC(=O)CC1CC2CCC1C2 (stereo not given) | x | -0.5 |
| COC(=O)c1sc(NC(C)=O)nc1C | -0.16 | 7.3 |

Remaining list, next part
| SMILES | KSHV LANA nucl | Ab BasE inh |
| --- | --- | --- |
| CN1C2CCC1CC(NC(=O)Nc1ccc(F)cc1F)C2 (stereo not given) | 0.76 | x |
| COCCn1c(C)cc(C(=O)CSc2nc(-c3ccccc3)cs2)c1C | x | 3.3 |
| Cn1cnnc1SCC(=O)N(CC1CCCO1)c1nc(-c2ccc(Br)cc2)cs1 (stereo not given) | x | 1.2 |
| CCCCc1cc(O)c(CCCC)c(O)c1 | 0.73 | -0.1 |
| CCN(c1ccc(NC(=O)COC(=O)c2ccc(N(C)C)cc2)cc1)C(C)C | x | -0.5 |
| Nc1cc(C(=O)O)c2ccccc2n1 | 0.06 | 1.8 |
| NS(=O)(=O)c1ccc(CCNC(=O)Nc2cccc(Cl)c2)cc1 | x | -3.7 |
| CCOC(=O)c1oc2ccc(Br)cc2c1CSc1nnc(N)s1 | x | 1.3 |
| COc1ccc(-c2noc(CC(=O)NC3CC3)n2)cc1 | -0.3 | 1.1 |
| O=C(OCN1C(=O)c2ccccc2C1=O)c1ccc(-n2cnnn2)cc1 | x | 0.3 |
| COC(=O)c1cc(COC(=O)c2ccc(Cl)cc2)oc1C | x | 1.6 |
| OCc1nnc2c3ccccc3c(-c3ccccc3)nn12 | 0.59 | -3.8 |
| Cc1ccc(-c2csc3ncnc(NCCN4CCNC4=O)c23)cc1 | x | 3.5 |
| COc1cccc(N2CC(NC(=O)NC(C)(CO)CO)CC2=O)c1 (stereo not given) | -1.4 | 0.7 |
| Cc1ccc(C)c(-n2c(=O)c3ccccc3n3c(SCc4ccc(C#N)cc4)nnc23)c1 | x | 2.2 |
| CN(C)c1ccc(C(=O)Nc2ccc(Oc3c(Cl)cccc3Cl)nc2)cc1 | -0.53 | x |
| Cc1ccc2c(c1)sc1nc(-c3cc4ccccc4oc3=O)cn12 | 0.009 | 2.1 |
| CCC(=O)Nc1sc(C)c(CC)c1C(=O)NC1CC1 | 0.48 | -3.5 |
| COC(=O)c1cc(=O)nc2n1C1O[C@H](CO)C(O)[C@H]1O2 (stereo not given in full) | x | 1.1 |
| O=C(CNc1ccccc1N1CCCCC1)Nc1ccc(F)cc1Cl | x | 0.0 |

The results go on.
Structure | KSHV LANA nucl | Ab BasE inh
O=C(O)c1cc(-c2ccc(N3CCOCC3)cc2)nn1-c1ccc(F)cc1 | x | 2.6
CN1[C@@H]2CC[C@H]1CC(OC(=O)[C@@H](CO)c1ccccc1)C2 (stereo not given in full) | 0.81 | -1.8
OC(COc1ccc2cc(Br)ccc2c1)Cn1cccn1 (stereo not given) | -0.32 | x
COC(=O)[C@H](C)NC(=O)c1ccc(S(=O)(=O)N2CCOCC2)cc1 | x | 0.0
O=C1C=C(NCc2ccncc2)CC(c2ccccc2)C1 (stereo not given) | 0.46 | 2.0
CSc1nnc(SCC(=O)NC(=O)c2cccn2C)s1 | x | -2.6
Cc1cc(=O)[nH]c(N/N=C2/CCc3ccccc3C2)n1 | x | -5.1
CCCCC(=O)Nc1ccc2oc(-c3ccc(O)c(Br)c3)nc2c1 | x | 2.1
CCn1nc(C(=O)OCCCCN2C(=O)c3ccccc3C2=O)c2ccccc2c1=O | x | -0.2
CNC(=O)CCCn1c(C)c2cnn(-c3ccccc3)c(=O)c2c1C | 1.1 | -3.5
CC(=O)O/N=C(\N)c1ccc(-c2csnn2)cc1 | -0.29 | -1.6
COc1ccnc(CS(=O)c2nc3ccc(OC(F)F)cc3[nH]2)c1OC (stereo not given) | -0.56&-0.37&-0.31 | -0.7
CC(=O)Nc1ccc(C(=O)OCC(=O)N(C)C2CCS(=O)(=O)C2)cc1 (stereo not given) | x | 0.7
Cn1c(COc2cccc3cccnc23)nnc1SCC(=O)O | 0.67 | -0.9
O=C(c1cc(-c2ccco2)[nH]n1)N1CCN(c2cccc(Cl)c2)CC1 | -0.55 | -0.5
COc1ccc(CNC(=O)CSc2nc3cc(Cl)ccc3o2)cc1OC | x | 1.7
O=C1c2ccccc2NC(c2ccncc2)N1c1ccccn1 (stereo not given) | -0.72 | 0.5
CC1(C)CC(=NNC(N)=S)CC(C)(C)N1 | -0.15 | 1.2
CC(C)CN(CC(C)C)S(=O)(=O)c1ccc(C(=O)O)cc1 | -1 | 2.1
COc1cccc(-c2noc(NCCN3CCOCC3)n2)c1 | 0.47 | 0.2
Cc1ccc(C(O)CSc2nnc(-c3ccc4ccccc4c3)n2C)cc1 (stereo not given) | x | -0.9
CCc1ccccc1NC(=O)CCC(=O)O | 1.3 | -3.5
CCNC(=S)N/N=C/c1ccccc1C(=O)O | x | 1.0
CC(NC(=O)C12CC3CC(CC(O)(C3)C1)C2)c1ccccc1 (stereo not given) | x | 2.5
COc1ccc2c(C)cc(N3CCC(C(N)=O)CC3)nc2c1 | x | 0.3

More records follow.
Structure | KSHV LANA nucl | Ab BasE inh
CS(=O)(=O)c1ccc2nc(NC(=O)COc3ccccc3)sc2c1 | x | 5.6
Cc1cnc2c(c1SCC(=O)NC1CCCC1)c(=O)n(C)c(=O)n2C | -0.96 | 2.0
COc1ccc(-n2cc(-c3ccccc3)c3c(NN4CCOCC4)ncnc32)cc1 | -0.49 | 0.0
NNC(=O)c1cc(=S)nc[nH]1 | x | 0.2
COc1ccc(S(=O)(=O)N2C3CCC2CC(NC(=O)NC2CCCCC2)C3)cc1 (stereo not given) | -0.21 | 0.2
Cc1nc2cc(N3CCN(C)CC3)c(NC(=O)C3CC3)cc2c(=O)n1Cc1ccccc1 | -1.4 | -1.1
O=C1c2ccccc2NC(c2ccco2)N1O (stereo not given) | -0.37 | 2.3
O=C(NCc1cccc(F)c1)C1CC(O)CN1C(=O)Nc1ccccc1 (stereo not given) | 0.21 | 3.3
O=C(NCCOc1ccccc1Cl)c1ncn[nH]1 | -0.38 | 0.1
CCNC(=S)Nc1ccc(NC(=O)c2ccccc2O)cc1 | x | 0.4
c1cnc(N2CC[N+]3(CCCC3)CC2)nc1 | x | 0.2
CN(C)/C=N/S(=O)(=O)c1ccc(Cl)c(Cl)c1 | x | -0.5
COCCCn1c(=O)c(C#N)cc2c(=O)n3ccccc3nc21 | -1.1 | 3.8
Nc1ccc(N=C2C(=O)Nc3ccccc32)cc1 | 0.17 | -0.2
Cc1cc(=O)n2nc(C)sc2n1 | 0.093 | -0.9
Cc1oc(C(C)(C)C)cc1C(=O)C(C#N)=C1SCCS1 | x | 0.1
O=C(O)c1ccc(NC(=O)c2cc3c([nH]c2=O)CCCC3=O)cc1 | -0.59 | 0.4
CC1(C)CN(c2ccc(OCc3ccccc3)cc2)C1=O | -1 | x
CC(=O)N1CCC(N(CCN2CCOCC2)C(=S)Nc2cccc(C(F)(F)F)c2)CC1 | -0.14 | -1.4
COC(=O)c1ccc(-n2c(C)cc(/C=N/N(C)C)c2C)cc1 | x | 2.0
Oc1ccc(N2CCN(c3nc(-c4cccnc4)nc4ccccc34)CC2)cc1 | x | 1.7
CCOC(=O)Nc1ccc2c(CN3CCN(c4ccc(OC)cc4)CC3)cc(=O)oc2c1 | x | 0.9
Cc1ccc(N2C(=O)/C(=C/N(C)C)c3ccccc3C2=O)cc1 | x | -5.3
CC(C(=O)Nc1ccccc1)N(c1nccs1)S(=O)(=O)c1ccccc1 (stereo not given) | x | -0.2
CN(C)/C=N/c1sc2c(c1C#N)CCCC2 | x | 1.9

Further results
Structure | KSHV LANA nucl | Ab BasE inh
CCCNC(=O)C1CCCN1 (stereo not given) | x | 3.5
COCc1nn2cc(-c3ccc(Br)cc3)nc2s1 | -0.48 | -2.2
CCN(CC)C(=O)C1Sc2nnc(-c3ccccc3)n2NC1c1ccccc1 (stereo not given) | -0.014 | 2.5
O=C(CN(c1ccccc1)S(=O)(=O)c1ccccc1)N1CCCC1 | -1.1 | 0.9
NC(=O)c1oc2ccccc2c1NC(=O)C1COc2ccccc2O1 (stereo not given) | -0.13 | 0.8
O=C(CC(=O)C(F)(F)F)c1ccccc1 | x | 0.4
O=C(Nc1ccc(S(=O)(=O)NCc2ccco2)cc1)c1ccc(=O)[nH]n1 | x | 0.6
c1ccc(CNc2nnnn2-c2ccccc2)cc1 | 0.056 | -0.9
COCCN1C(=O)c2ccccc2C(C(=O)Nc2ccc3c(c2)OCCO3)C1c1c[nH]c2ccccc12 (stereo not given) | 0.26 | 3.4
CCOc1ccccc1C(=O)NCc1nc(-c2ccccc2)no1 | 1 | -4.2
CCn1c(C2CC(=O)N(C(C)(C)C)C2)nc2ccccc21 (stereo not given) | -0.54 | 1.0
O=C(NC1CCCC1)c1c(O)nc2ccccn2c1=O | -0.9 | -0.1
O=C(O)CC1SC(=Nc2cccc(C(F)(F)F)c2)NC1=O (stereo not given) | x | 1.2
CN(C)CCOC(=O)CC12CC3CC(C1)CC(CC(=O)OCCN(C)C)(C3)C2 | 0.53 | -2.4
O=C(O)CCCOc1ccc(Cl)cc1 | -0.3 | 1.1
CN(C(=S)Nc1cccnc1)c1ccc(O)cc1 | x | 2.1
COC(=O)c1ccc(N)s1 | x | 1.6
